NPYLR7 ag: activates Aedes aegypti NPYLR7 receptor. activation, % at 10 µM. HEK293T NPYLR7/Galpha15, GCaMP6s calcium fluorescence. 270,000 tested, 0.15% active; in the data active = activation above about 40%;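 also: 0% = vehicle and 100% = reference agonist at the receptor; some compounds past the cut are filed as inactive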
NPYLR7 ag max-min: further read-out of NPYLR7 ag, marked with its call; activation, %; measured here: Max-Min RFU normalised activation; some inactives read as strong as hits;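 span of the calcium signal over five minutes; 0% = vehicle and 100% = native peptide agonist; compound fluorescence can raise it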
* marks the source's active call; other numbers are inactive results; & = joins results of further samples. Some of the compounds tested; rates above refer to the full screens.

SMILES	NPYLR7 ag	NPYLR7 ag max-min
O=C(NCC1(Cn2cccn2)CC1)C(=O)N1CCc2ccccc21	11.0	8.6
COC(=O)c1sc(N)c(C(=O)OC)c1COC(=O)Cc1c(C)noc1C	9.8	13.4
CCS(=O)(=O)N1CCc2cc(C(=O)Cn3cnc(C#N)n3)ccc21	-1.2	-2.7
O=C1OCCN1c1cccc(Nc2nc(C(F)(F)F)nc3ccccc23)c1	-4.1	0.0
COc1cc(C=CC(=O)c2ccc(I)cc2)cc(OC)c1OC	0.0	0.1
COCC(=O)N1CCC(C(NC(=O)c2ccc3c(c2)OCO3)C(=O)NC2CC2)CC1 (stereo not given)	10.5	12.8
CCCS(=O)(=O)N1CCN=C1SCc1cccnc1	6.9	4.7
O=C(NCc1ccco1)C1COC2(CCCCC2)N1C(=O)c1cc(F)cc(F)c1 (stereo not given)	-5.3	1.4
CN=c1scc(-c2ccc(OC(F)F)cc2)n1N=Cc1ccc(F)cc1	5.1	3.7
CC(C)CN(Cc1cccn1Cc1ccccc1Cl)C(=O)CN(C(=O)c1cccc(Cl)c1)C(C)C	-3.4	10.9
CCOc1cc(Cl)c(S(=O)(=O)NC(C)C)cc1Cl	0.2	4.8
Cc1ccnc(SCCCn2c(N3CCOCC3)nc3c2c(=O)[nH]c(=O)n3C)n1	2.5	1.6
Cc1cc(N2CCN(c3cccc(C(F)(F)F)c3)CC2)nc(SCc2ccc(C(=O)N3CCCC3)cc2)n1	12.2	16.0
COC(=O)C(C)(Cc1ccccc1)NC(=O)c1ccc(-n2nc(-c3ccc(Cl)cc3)cc2N)cc1 (stereo not given)	-9.7	-10.9
COCCN(Cc1ccc(C)cc1)CC(O)c1ccccc1 (stereo not given)	-4.7	-0.1
COc1cccc(-c2nc(N3CCOCC3)nc3nn(-c4ccccc4)c(N)c23)c1	6.9	7.8
COc1cc2c(cc1OC)C(c1ccc(F)cc1)N(C(=O)c1ccco1)CC2 (stereo not given)	13.4	10.5
CCC(C)N(Cc1cccc(OS(C)(=O)=O)c1)C(=O)CC(C)(C)C (stereo not given)	-8.0	-7.7
CCOc1ccc(-n2c(CNC(=O)c3ccco3)nnc2SCC(=O)Nc2nnc(C)s2)cc1	-12.0	-5.0
COc1cccc(CC(=O)N2CCOC(COc3ccccc3OC)C2)c1 (stereo not given)	2.0	6.1

Individual results from above.
NPYLR7 ag with `COc1cc2c(cc1OC)C(c1ccc(F)cc1)N(C(=O)c1ccco1)CC2` (stereo not given) reads 13.4
NPYLR7 ag max-min with `COC(=O)C(C)(Cc1ccccc1)NC(=O)c1ccc(-n2nc(-c3ccc(Cl)cc3)cc2N)cc1` (stereo not given) reads -10.9

Continued.
SMILES	NPYLR7 ag	NPYLR7 ag max-min
C[C@H](C(=O)NCCN1CCOCC1)C1CC[C@@]2(C)Cc3sc(-c4cccnc4)nc3[C@@H](C)[C@@H]2[C@H]1O (stereo not given in full)	-2.0	-11.4
O=S(=O)(c1cccc(F)c1)N1CCN(c2nc3nccc(-c4cc(Cl)ccc4Cl)n3n2)CC1	7.0	2.6
c1ccc(-c2csc3ncn4cnnc4c23)cc1	2.7&9.8	3.0&12.3
CCCCN(Cc1cccn1Cc1ccc(Br)cc1)C(=O)CN(CCCOC)C(=O)COc1ccccc1	-5.6	-3.8
CCN(CC1CCCN(CCc2cccc(OC)c2)C1)C(=O)c1cccs1 (stereo not given)	0.5	-1.6
CCOC(=O)N1CCN(C(=O)C2CCN(c3ccccc3)C2=O)CC1 (stereo not given)	-1.8	-6.0
CCOC(=O)c1c(NC(=O)c2ccc(OC)c([N+](=O)[O-])c2)sc2c1CCCC2	-9.1	-19.1
Cc1ccc2nc(C(=O)N3CCc4c([nH]c5ccccc45)C3c3ccccn3)cn2c1 (stereo not given)	29.8	29.2
CCCNC(=O)CSc1c(COC)cnc2c1c(=O)n(C)c(=O)n2C	6.9	11.8
CC(NC(=O)C1CSC2(C)CCC(=O)N12)c1ccc(F)cc1 (stereo not given)	0.6	-0.8
Cc1ccccc1CC1(CO)CCCN(C(=O)c2[nH]c3c(C)ccc(C)c3c2C)C1 (stereo not given)	3.2&5.5	-1.4&6.3
O=C(Nc1ccnn1C1CCN(Cc2ccc3c(c2)CCO3)CC1)c1ccc2c(c1)OCO2	8.7&11.3	6.8&3.4
C=CCSc1nc2c(c(=O)[nH]1)C(c1ccc(C(=O)OC)cc1)C(C(=O)OCC)=C(C)N2 (stereo not given)	5.2	4.1
CC1(C)CCc2cc(Cc3nn4c(-c5cnccn5)nnc4s3)ccc2O1	1.8	1.0
O=C(CCc1nc(-c2ccc(F)cc2)no1)NCc1ccc2c(c1)OCO2	21.3	11.6
COc1cc(C#N)ccc1OCC(=O)NC1CCCC1	0.8	0.9
COc1ccc(-c2c(C)noc2-c2ccc(O)cc2O)cc1	1.2	-3.6
CC(c1nc(N)nc(N(C)C)n1)N1CCN(c2ncc(C(F)(F)F)cc2Cl)CC1 (stereo not given)	0.3	-3.0
c1ccc(-c2nc(CN3CCc4[nH]cnc4C3c3ccccn3)cs2)cc1 (stereo not given)	-1.7	-5.6
COc1cc(/C=C2\SC(N)=NC2=O)cc(Br)c1O	43.2	34.3
O=C(C=Cc1ccc2ccccc2n1)OCn1nnc2ccccc2c1=O	3.7	2.3
CCOC(=O)c1c(N2C(=O)CC(Sc3ccccc3C(=O)O)C2=O)sc(C)c1C (stereo not given)	2.5	7.6
CS(=O)(=O)c1ccc(NCc2ccc3c(c2)CCC3)c(S(C)(=O)=O)c1	-0.4	-1.3
Cc1ccccc1-n1c(C)nnc1SCc1cccc(F)c1F	-2.8	0.8
CC(=O)NC(Cc1ccccc1F)C(=O)N1CCOC(COc2cccc(C(F)(F)F)c2)C1 (stereo not given)	21.2	12.5
Cc1ccc(C2c3ccccc3CCN2C(=O)c2ccc(F)c(F)c2)cc1 (stereo not given)	-0.8	8.0
CC1=NN(C(C)C)c2nc3c(c(=O)n(CCC(C)C)c(=O)n3C)n2C1	3.5	6.8
CCn1c(C)nnc1SC1CCN(c2ccc(Cl)cc2)C1=O (stereo not given)	-1.0	-1.2
COc1ccccc1-n1c(=O)c2ccccc2n(Cc2ccc(C(=O)N3CCN(C(C)=O)CC3)cc2)c1=O	30.5	33.7
Cc1nn(-c2cccc(Cl)c2)c2sc(C(=O)N3CCOCC3)cc12	1.3&-10.3	0.7&-12.6
COc1ccc(CNC(C)c2c(C)nn(C)c2C)c(OC)c1OC (stereo not given)	0.7	2.1
CC(C)COc1nc(-c2ccc(C(F)(F)F)cc2)n(-c2ccc(NC(=O)C(Cl)Cl)cc2)n1	14.5	21.6
Cc1c(C(=O)N(C)Cc2ccc(F)cc2)sc(=O)n1Cc1ccccc1	-3.1	-4.7
Cc1cccc(C(=O)N2CCSC23CCN(C(=O)c2cccc(Br)c2)CC3)c1	-4.1	2.7
CC(C)(C)c1nnc(NCCCO)[nH]c1=O	15.1	10.1
CC(C)(NCC(=O)NCC(F)(F)F)c1ccc(F)cc1	5.5	3.3
CC(=O)c1c(C)[nH]c(C(=O)COC(=O)C=Cc2ccco2)c1C	8.1	15.1
O=C(c1cccnc1Sc1ccc2c(c1)OCCO2)N1CCOCC1	2.3	0.8
COc1ccc(C(=O)Oc2coc(CSc3nc(C)cc(C)n3)cc2=O)cc1	-13.8	-8.0
COc1ccccc1-n1c(O)c(C=C2C=Nc3ccccc32)c(=O)n(-c2ccccc2OC)c1=O	7.6	3.4

Of the compounds above, two contain a cyano group:
SMILES	NPYLR7 ag	NPYLR7 ag max-min
CCS(=O)(=O)N1CCc2cc(C(=O)Cn3cnc(C#N)n3)ccc21	-1.2	-2.7
COc1cc(C#N)ccc1OCC(=O)NC1CCCC1	0.8	0.9

Pulled by compound from the list above (two):
SMILES	NPYLR7 ag	NPYLR7 ag max-min
CCOC(=O)c1c(N2C(=O)CC(Sc3ccccc3C(=O)O)C2=O)sc(C)c1C (stereo not given)	2.5	7.6
Cc1cccc(C(=O)N2CCSC23CCN(C(=O)c2cccc(Br)c2)CC3)c1	-4.1	2.7

Remaining list, next part
SMILES	NPYLR7 ag	NPYLR7 ag max-min
CC(Sc1ccc(Cl)cc1)C(=O)NCC(c1cccs1)N(C)C (stereo not given)	11.2	9.9
COc1cccc(CN2CCN(Cc3cc(C)c(C)o3)CC2=O)c1	3.2	4.0
O=C(CN1CCN(C(=O)c2cccs2)CC1)Nc1cccc(Br)c1	2.3	1.6
c1ccc(OCCn2cnc3ccccc32)cc1	-2.6	-3.9
Cc1ccc(-c2nnc(SCc3cc(C)on3)o2)cc1	22.5	23.8
CCSc1nc(CC(=O)NCCN2CCC(O)CC2)cs1	-2.9	-3.6
COc1cccc(C2C(C(=O)c3cccs3)=C(O)C(=O)N2CCN(C)C)c1OC (stereo not given)	-0.7	5.0
COc1cccc(C(=O)N2CCN(C(C(=O)Nc3ccc(C)c(F)c3)C3CCCC3)CC2)c1 (stereo not given)	4.4	5.0
Cc1ccc(-c2cc(C(=O)NCCC(c3ccccc3)c3ccccc3)n(-c3ccccc3Cl)n2)cc1C	-1.3	10.2
COc1ccc(C(=O)NCc2cccc(F)c2)cc1OC1CCN(C(C)=O)CC1	5.0	1.4
CN(C)C(=O)c1cccc(NC(=O)c2c(F)cccc2Cl)c1	0.0	-0.9
O=C1NCCN(Cc2cccs2)C1CC(=O)N(Cc1ccccc1)CC1CCC1 (stereo not given)	17.7	13.7
CC(C)c1nc(C(=O)N2CCCC3(CCNCC3)CC2)cs1	0.1	-1.7
Cc1cnc(C(=O)N(CC2CCN(Cc3ccccc3C)CC2)CC2CCCO2)cn1 (stereo not given)	13.5	1.8
CSc1ncc(CNCCCN2CCCCC2C)c(N2CCN(c3ccccc3F)CC2)n1 (stereo not given)	2.3	-0.4
Cc1ccc2oc(CN3CCCC(Cn4ccnc4)C3)c(C)c2c1 (stereo not given)	-3.5	-10.8
Cn1nc(Br)c2c(NCCSCCCO)ncnc21	0.5	-8.7
CC(C)NC(=O)CN(c1ccccc1)S(=O)(=O)c1ccccc1F	-1.3	-2.7
COc1cc(C(=O)N2CCC(c3nc(C4CC4)n[nH]3)CC2)cc(OC)c1Br	8.1	7.6
O=C(Nc1cccc(F)c1)N1CCCCC1CCn1cccn1 (stereo not given)	-0.1	-1.1
O=C(NCc1ccc2[nH]c3c(c2c1)CCCC3)c1cc(C2CC2)on1	21.9	8.7
CCc1nn(C(CC)C(=O)NC2CCCC2)c(=O)c2cc3occc3n12 (stereo not given)	-10.3	-9.2
CN(C)CCNC(=O)C1COC2(CCN(C(=O)c3ccc(Cl)cc3)CC2)N1C(=O)c1ccc(F)cc1 (stereo not given)	2.6	16.7
O=S(=O)(c1cccs1)n1nnc2ccccc21	0.8&2.2	-3.5&7.5
CC(C)c1nc(CN2C(=O)OC[C@@H]2Cc2ccccc2)no1	-1.7	-6.4
CCCCNC(=O)/C(C#N)=C1\N=C(NC(=O)c2cccs2)c2ccccc21	5.1	1.3
CCCOc1ccc(C(=O)Nc2ccc(-c3nc4ccccc4o3)cc2)cc1	2.7	2.4
COc1ccc(OCCNC(=O)C2(C)CCN2Cc2ccc3ccccc3c2)cc1 (stereo not given)	1.5	-2.4

Whole records from above:
c1ccc(-c2csc3ncn4cnnc4c23)cc1 as listed: NPYLR7 ag: 2.7&9.8; NPYLR7 ag max-min: 3.0&12.3
CCS(=O)(=O)N1CCc2cc(C(=O)Cn3cnc(C#N)n3)ccc21 as listed: NPYLR7 ag: -1.2; NPYLR7 ag max-min: -2.7
CCCOc1ccc(C(=O)Nc2ccc(-c3nc4ccccc4o3)cc2)cc1 as listed: NPYLR7 ag: 2.7; NPYLR7 ag max-min: 2.4
